gsp antag = qHTS for Antagonists of gsp, the Etiologic Mutation Responsible for Fibrous Dysplasia/McCune-Albright Syndrome: qHTS; 340,000 tested, 0.4% active; Potency, µM (top dose mostly 76.9 µM), for inactives: at the highest dose activity change, negative = inhibition, usual class: inhibitors; AID 624288, 2012; gsp-mutant cells, cAMP HTRF, 30 min; control for the full effect not named in the record; active = falling curve of any shape with a large fitted effect; inconclusive = falling curve, mostly with a smaller effect; inactive = flat or rising curve; cell line not stated here;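 further: intracellular cAMP measured with PDE inhibitor Ro 20-1724 present during compound exposure; potency means the concentration at half of the fitted maximal effect; on the % scale 0 is the no-effect control and ±100 the full control effect; nearly all actives have a fitted effect of over 65% in size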
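Cells in G418 medium, seeded 16-24 h, 37C; buffer exchange to DPBS + 1 mM CaCl2, 0.5 mM MgCl2, 0.05% BSA; cpds in DMSO + […] (300 uM stock), 30 min 37C; HTRF cAMP detection.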
PINK1 modulator = A Quantitative High throughput Screen to Identify Chemical Modulators of PINK1 Expression | PINK1 immunofluorescence, high-content cytometry, 24 h | Potency, µM (highest dose often 76.6 µM), for the others: top-dose activation (PINK1 increase), most hits filed as activators | 410,000 tested, 0.2% active; active = well fitted activation curve with a large enough effect; inconclusive = small, poorly fitted or top-dose-only effect; inactive = flat fitted curve, though single readings scatter; cell line not stated here;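 further: potency means the concentration at half of the fitted maximal effect; % of control where 0% means no effect; nearly all actives have a fitted effect of over 65% in size; a mitochondrial uncoupler was the plate control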
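Fluorescence from anti-PINK1 antibody, together with nuclear and cell stains, was scanned on a laser-scanning cytometer. Before staining, stable-line cells were incubated 24 hours with compounds at 5 concentrations; primary antibody 12 h at 10 degrees C.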
Menin-MLL FL inh = qHTS Assay for Inhibitors Targeting the Menin-MLL Interaction in MLL Related Leukemias: Competition With Fluorescein Labeled MLL-derived Peptide. Fluorescence polarization, fluorescein-MLL peptide displacement from menin. FP activity change, % at 61.4 µM. 290,000 tested, under 10 active; inconclusive = falling polarisation curve, or a change in total fluorescence; inactive = total fluorescence flat and polarisation flat or rising; no compound was filed as active; the % refers to the polarisation; negative = inhibition;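 further: % of control where 0% means no effect; inhibitors lower the polarisation; unlabelled MLL peptide was the positive control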
gsp agonist = qHTS for Agonist of gsp, the Etiologic Mutation Responsible for Fibrous Dysplasia/McCune-Albright Syndrome: qHTS | Potency, µM (series often up to 76.9 µM), for the others: top-dose activation (cAMP increase), usual class: activators | gsp mutant cells, cAMP HTRF, 30 min; control for the full effect not named in the record | 340,000 tested, 0.13% active; active = well fitted activation curve with a large enough effect; inconclusive = small, poorly fitted or top-dose-only effect, or another doubt; inactive = no such curve, though single readings can be large or run the other way; cell line not stated here;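 further: phosphodiesterase inhibitor Ro 20-1724 added with compounds to block cAMP breakdown; potency means the concentration at half of the fitted maximal effect; nearly all actives have a fitted effect of over 60% in size; about a fifth of the inactives were tested at one dose only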
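Cells stably selected in G418 were plated at 2000/well, grown 16-24 hr, then given compounds in DMSO with the PDE inhibitor […] (300 uM solution added) for 30 min at 37C; cAMP was read by HTRF.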
Sfp PPTase inh = qHTS Assay for Inhibitors of Bacillus subtilis Sfp phosphopantetheinyl transferase (PPTase) | Biochemical Sfp PPTase activity, qHTS | Potency, µM, without a hit: max response, negative = inhibition, actives largely listed as inhibitors | 310,000 tested, 3.5% active | AID 1490, 2009; active means well fitted inhibition curve with a large enough effect; inconclusive means small, poorly fitted or top-dose-only effect, or another doubt; inactive means no such curve, though single readings can be large or run the other way;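 further: the enzyme is Sfp with the accession as filed and its product quenches rhodamine fluorescence; potency means the concentration at half of the fitted maximal effect; 0% = enzyme reaction without inhibitor and -100% = no enzyme wells; top concentration of the series not given in the record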
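Fluorescence-quenching assay: 15 nM Sfp-PPTase preincubated 15 min at room temperature with compound, then 5 uM rhodamine-CoA and 12.5 uM BHQ-2-labelled YbbR peptide added. Fluorescence (ex 525/em 598 nm) read at start and after 30 min; difference gives rate.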
D2 ag = Beta-Arrestin HTS for Positive Allosteric Modulators of the Human D2 Dopamine Receptor: Agonists | D(2) dopamine receptor (Homo sapiens), P14416 | 360,000 tested, 0.084% active | DiscoveRx PathHunter D2 beta-arrestin, luminescence, 90 min; 100% = 57 uM dopamine signal | activation, % (concentration not given with the values); in the data active = activation above about 40%; inconclusive = about 15% to 40%; inactive = below about 15%; further: compound concentration not given in the record; the text of the record calls up to 30% inactive
Target sequence (P14416 whole entry, looked up): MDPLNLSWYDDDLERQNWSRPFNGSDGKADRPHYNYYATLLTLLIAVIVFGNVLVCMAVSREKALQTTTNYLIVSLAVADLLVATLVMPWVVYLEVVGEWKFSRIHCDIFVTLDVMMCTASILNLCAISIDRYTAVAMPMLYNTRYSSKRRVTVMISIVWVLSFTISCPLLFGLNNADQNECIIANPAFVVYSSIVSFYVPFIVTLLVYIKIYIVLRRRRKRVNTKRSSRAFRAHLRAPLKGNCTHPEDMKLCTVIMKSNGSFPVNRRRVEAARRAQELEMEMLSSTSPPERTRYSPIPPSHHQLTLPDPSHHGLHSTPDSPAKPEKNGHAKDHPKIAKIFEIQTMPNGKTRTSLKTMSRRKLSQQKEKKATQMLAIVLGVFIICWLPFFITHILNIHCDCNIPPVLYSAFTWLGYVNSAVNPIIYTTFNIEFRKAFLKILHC
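DiscoveRx PathHunter D2 beta-arrestin cells (2,100/well) attached overnight, then compound-stimulated 90 min at 37 C in HBSS/10 mM HEPES/0.1% Tween-20 buffer; beta-galactosidase complementation read by luminescence after 1 h at ambient temperature. Dopamine 57 uM final (EC100) as control.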
ClpP mod = qHTS Assay for Activators of ClpP. Potency, µM (titrated, usually from 57.5 µM), inactives show at the highest dose activity change, negative = active. ATP-dependent Clp protease proteolytic subunit (Bacillus subtilis (strain 168)), P80244. 340,000 tested, 1.9% active. purified B. subtilis ClpP, FRET peptide cleavage, 20 min; active = well fitted falling curve with a large enough effect; inconclusive = small, poorly fitted or top-dose-only effect; inactive = no such curve, though single readings can be large or run the other way; further: potency means the concentration at half of the fitted maximal effect; the source files actives as falling curves though it sought activators and does not explain the sign; nearly all actives have a fitted effect of over 65% in size; many hits overshoot -100%
Target sequence (P80244 whole entry, looked up): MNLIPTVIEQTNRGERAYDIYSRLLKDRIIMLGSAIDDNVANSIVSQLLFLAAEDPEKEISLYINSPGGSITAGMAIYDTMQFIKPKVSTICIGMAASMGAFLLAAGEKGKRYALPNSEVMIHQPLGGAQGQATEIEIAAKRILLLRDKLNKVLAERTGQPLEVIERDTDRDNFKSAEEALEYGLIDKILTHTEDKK
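FRET quenching reversal measured ClpP activation: 10 microg/mL B. subtilis ClpP at pH 8 with the FRET-FV decapeptide, read at 430 nm after 320 nm excitation. The 20-min minus 0-min signal was scaled between DMSO/no-enzyme wells and ADEP (5.8 microM final).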
* hit, by the source's call; [ ] = remark or other dose.

What do the screens show for `Cc1ccc(OC(=O)c2cccc(S(=O)(=O)N3CCCC3)c2)c(-n2nc3ccccc3n2)c1`?
gsp antag: -32%; PINK1 modulator: -0.9%; Menin-MLL FL inh: -3.0; gsp agonist: 6%[15.4 µM]; Sfp PPTase inh: 11%; D2 ag: -6.4; ClpP mod: -0.8%

How did COc1cccc(Nc2c([N+](=O)[O-])cncc2[N+](=O)[O-])c1 do in these assays?
gsp antag: -3%; PINK1 modulator: -0.6%; Menin-MLL FL inh: -4.8; gsp agonist: -8%; Sfp PPTase inh: 6%; D2 ag: 13

What do the screens show for `CN(C)CCOc1ccc(Cl)cc1C(C)(C)C`?
gsp antag: 29%; PINK1 modulator: 8.5%; Menin-MLL FL inh: -2.2; gsp agonist: -9%[15.4 µM]; Sfp PPTase inh: inconclusive; D2 ag: -2.1; ClpP mod: 1.3%

Results for O=C(COc1ccccc1F)OCC(=O)N1CCc2ccccc21 ?
gsp antag: -1%; PINK1 modulator: 1.7%; gsp agonist: 11%[15.4 µM]; D2 ag: 0.5

How did COc1ccccc1CNC(=O)CN1CCN(Cc2ccc(Cl)cc2)C1=O do in these assays?
gsp antag: -1%; PINK1 modulator: -0.3%; gsp agonist: -81%[inhibitor]; D2 ag: -2.6; ClpP mod: 0.4%

How did Oc1ccc(CCc2n[nH]c(=S)n2-c2ccc(F)cc2)cc1 do in these assays?
gsp antag: -12%; PINK1 modulator: -0.2%; Menin-MLL FL inh: 2.3; gsp agonist: 10%; Sfp PPTase inh: 5%; D2 ag: -4.0; ClpP mod: -1.5%

What do the screens show for `N#Cc1cccc(NC(=O)c2ccc(S(=O)(=O)N3CCOCC3)cc2)c1`?
gsp antag: 10%; PINK1 modulator: 1.6%; gsp agonist: 24%; D2 ag: -1.3; ClpP mod: 1.6%

Results for COc1cc(C2C(C#N)=C(N)Oc3n[nH]c(-c4cccnc4)c32)cc(Br)c1O (stereo unspecified) ?
gsp antag: -20%; PINK1 modulator: -0.3%; Menin-MLL FL inh: 26; gsp agonist: 19%; Sfp PPTase inh: 10%; D2 ag: -0.3

How did CN(C(=O)c1ccc(NC(=O)C2CCN(C(=O)OC(C)(C)C)CC2)cc1)C1CC1 do in these assays?
gsp antag: 8%; PINK1 modulator: -0.9%; D2 ag: -2.4; ClpP mod: 1.4%

What do the screens show for `COC(=O)c1ccc(NS(=O)(=O)c2cccc3cccnc23)cc1`?
gsp antag: 12%; PINK1 modulator: 13%; Menin-MLL FL inh: 3.7; gsp agonist: -50%[inhibitor]; Sfp PPTase inh: 17%; D2 ag: -5.9; ClpP mod: -0.3%

Results for CC[C@H](C)[C@H](NC(=O)CNC(=O)COc1cc2c(c3oc(=O)cc(C)c13)CCC(C)(C)O2)C(=O)O ?
gsp antag: 9%; PINK1 modulator: 0.5%; Menin-MLL FL inh: 0.3; gsp agonist: 14%; Sfp PPTase inh: 8%; D2 ag: 2.3; ClpP mod: 4.1%

How did Clc1ccc(-c2nnc3n2CCCCS3)cc1 do in these assays?
gsp antag: -2%; PINK1 modulator: 0.5%; Menin-MLL FL inh: 3.4; gsp agonist: 12%; Sfp PPTase inh: 20%; D2 ag: -1.6; ClpP mod: 0.6%

Results for CCOc1cccc2cc(C(C)=O)oc12 ?
gsp antag: 1%; PINK1 modulator: -1.6%; Menin-MLL FL inh: 1.2; gsp agonist: 3%; Sfp PPTase inh: -22%; D2 ag: 1.3; ClpP mod: inconclusive

What do the screens show for `COc1ccc(/C=N/NC(=O)Cn2ccnc2C)cc1OC`?
gsp antag: 6%; PINK1 modulator: -0.4%; Menin-MLL FL inh: inconclusive; gsp agonist: 30%[15.4 µM]; Sfp PPTase inh: 14%; D2 ag: 1.1

Results for CC(=O)NCCn1c(SCC#N)nc2ccccc2c1=O ?
gsp antag: 9%; PINK1 modulator: -1.1%; Menin-MLL FL inh: -0.8; gsp agonist: 11%; Sfp PPTase inh: 11%; D2 ag: -0.3; ClpP mod: -0.7%

Results for COC(=O)Cn1ccnc1[N+](=O)[O-] ?
PINK1 modulator: -0.2%; gsp agonist: -36%[inhibitor]; D2 ag: -1.1; ClpP mod: -0.3%

Results for CCOC(=O)c1sc(NC(=O)C2CC(=O)N(c3ccc(OC)cc3)C2)nc1C (stereo unspecified) ?
gsp antag: -21%; PINK1 modulator: -0.7%; Menin-MLL FL inh: -1.7; gsp agonist: -32%; Sfp PPTase inh: 7%; D2 ag: 0.0

How did OCCCNc1nccc(-c2cc(Nc3cccc(Cl)c3)ncn2)n1 do in these assays?
gsp antag: 19%; PINK1 modulator: 11%; Menin-MLL FL inh: 3.5; Sfp PPTase inh: -8%; D2 ag: 2.1; ClpP mod: -6.0%

What do the screens show for `CC(=O)NC(c1ccc(F)c(F)c1)c1nc(-c2cccc(C(=O)O)c2)cs1` (stereo unspecified)?
PINK1 modulator: -0.5%; D2 ag: -3.5; ClpP mod: 0.2%

Results for COCCCNc1nc2ccccc2[nH]c1=O ?
gsp antag: 18%; PINK1 modulator: 1.8%; Menin-MLL FL inh: 0.4; gsp agonist: -35%[inhibitor]; Sfp PPTase inh: -1%; D2 ag: -2.0; ClpP mod: 4.3%

Results for COC(=O)c1c(-c2cccc(OC)c2)csc1N ?
gsp antag: -3%; PINK1 modulator: 4.1%; Menin-MLL FL inh: 5.6; gsp agonist: -60%[inhibitor]; Sfp PPTase inh: 56µM*; D2 ag: 4.6; ClpP mod: -0.5%

Results for C=Cc1ccc(COC(=O)c2cn(CC)c3nc(C)ccc3c2=O)cc1 ?
gsp antag: -7%; PINK1 modulator: 1.8%; Menin-MLL FL inh: 1.0; gsp agonist: 22%; Sfp PPTase inh: -7%; D2 ag: -1.3

What do the screens show for `COc1cc(CCC(=O)Nc2ccc(S(=O)(=O)NC3=NCCCCC3)cc2)cc(OC)c1OC`?
gsp antag: -12%; PINK1 modulator: -0.7%; Menin-MLL FL inh: 2.9; gsp agonist: -16%[15.4 µM]; Sfp PPTase inh: 15%; D2 ag: -1.0; ClpP mod: 1.7%

How did NS(=O)(=O)c1ccc(NC(=O)Cc2c(F)cccc2Cl)cc1 do in these assays?
gsp antag: 4%; PINK1 modulator: -0.7%; Menin-MLL FL inh: -6.7; gsp agonist: 3%; Sfp PPTase inh: 16%; D2 ag: 2.0

How did COc1ccc(CC(=O)Nc2cc(S(=O)(=O)N3CCCCC3)ccc2N2CCN(C)CC2)cc1 do in these assays?
gsp antag: 6%; PINK1 modulator: 2.6%; Menin-MLL FL inh: 2.9; gsp agonist: -28%; Sfp PPTase inh: -5%; D2 ag: -3.3; ClpP mod: 0.7%

How did CCCCC(=O)Nc1nc(C)c(-c2csc(Nc3cc(OC)ccc3OC)n2)s1 do in these assays?
gsp antag: 0%; PINK1 modulator: 1.3%; Menin-MLL FL inh: 4.8; gsp agonist: 20%; Sfp PPTase inh: -1%; D2 ag: 0.1; ClpP mod: -21%

How did CC(C)c1nnc(NC(=O)CCC(=O)NCc2ccc(F)cc2)s1 do in these assays?
gsp antag: 12%; PINK1 modulator: 0.4%; Menin-MLL FL inh: 1.2; gsp agonist: 5%; Sfp PPTase inh: 10%; D2 ag: 1.3; ClpP mod: 0.1%

How did CC1(C)CC(=O)C2=C(C1)N1C(=C(C#N)C2c2ccccc2Cl)N=C(N)c2ccccc21 (stereo unspecified) do in these assays?
gsp antag: -26%; PINK1 modulator: -0.7%; Menin-MLL FL inh: 0.0; gsp agonist: -53%[inhibitor]; Sfp PPTase inh: 4%; D2 ag: 7.0; ClpP mod: 0.7%

What do the screens show for `O=C(COC(=O)c1cccc2ccccc12)NCC1CCCO1` (stereo unspecified)?
gsp antag: 3%; PINK1 modulator: 2.5%; Menin-MLL FL inh: -3.4; gsp agonist: -6%[15.4 µM]; Sfp PPTase inh: -2%; D2 ag: 1.7

Results for O=C(Nc1ccc(-c2cc3ccccc3oc2=O)c(Cl)c1)c1cccnc1 ?
gsp antag: 6%; PINK1 modulator: -0.4%[38.3 µM]; Menin-MLL FL inh: 7.6; gsp agonist: 7%; Sfp PPTase inh: 0%; D2 ag: 0.5; ClpP mod: 0.8%

What do the screens show for `N#Cc1c(N)nc2c(c1-c1ccccc1)CCC2`?
gsp antag: 0%; PINK1 modulator: -5.6%; Menin-MLL FL inh: -2.6; gsp agonist: 19%; Sfp PPTase inh: 19%; D2 ag: 1.4; ClpP mod: -12%

What do the screens show for `O=C(O)C1C2C=CC(C2)C1C(=O)OC1CC2CCC1C2` (stereo unspecified)?
gsp antag: 12%; PINK1 modulator: -1.4%[38.3 µM]; Menin-MLL FL inh: 1.6; gsp agonist: -21%; Sfp PPTase inh: 9%; D2 ag: -3.7; ClpP mod: -4.7%

How did O=C(C[C@H]1C[C@H](C(=O)N2CCCCC2)[C@@]2(CCc3ccccc3)c3[nH]c4cc(-c5ccco5)ccc4c3CCN2C1=O)NCc1ccco1 do in these assays?
gsp antag: -3%; PINK1 modulator: -0.5%; D2 ag: 0.1; ClpP mod: 3.0%

Results for COC(=O)CSc1nc2ncc(Cl)cc2[nH]1 ?
gsp antag: -5%; PINK1 modulator: -0.7%; Menin-MLL FL inh: 1.5; gsp agonist: inconclusive; Sfp PPTase inh: 18%; D2 ag: -1.8; ClpP mod: 1.5%

How did Cc1ccc(NCN2C(=O)C3CC=C(Cl)CC3C2=O)cc1 (stereo unspecified) do in these assays?
gsp antag: 3%; PINK1 modulator: -0.6%; Menin-MLL FL inh: -5.5; gsp agonist: -57%[inhibitor]; Sfp PPTase inh: 4%; D2 ag: -0.9; ClpP mod: -1.1%

Compound activity: PubChem, National Center for Advancing Translational Sciences (NCATS)
